CBX7 inh – inhibitors of human CBX7 binding to H3K27me3 peptide | AlphaScreen His6-CBX7 / biotin-H3K27me3 peptide binding; stronger effect = lower value | actives 1.1% (n = 66,000) | O95931 | normalised signal (fraction of DMSO) (test concentration not listed); in the data active = normalised signal below about 0.5;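 note: 100 nL library stock added to about 20 µL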
Target sequence (O95931 whole entry, looked up): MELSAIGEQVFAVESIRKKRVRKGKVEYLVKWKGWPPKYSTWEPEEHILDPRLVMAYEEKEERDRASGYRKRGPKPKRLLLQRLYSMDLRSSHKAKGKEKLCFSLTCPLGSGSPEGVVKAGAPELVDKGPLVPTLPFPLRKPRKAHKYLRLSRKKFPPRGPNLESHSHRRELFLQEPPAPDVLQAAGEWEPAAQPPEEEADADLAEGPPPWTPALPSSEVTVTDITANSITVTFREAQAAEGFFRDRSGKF
CBX7 inh z-score – further read-out of CBX7 inh, marked with its call; z-score; measured here: z-score of CBX7 signal; some inactives read as strong as hits; reference of the scale not given here;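 same signal on another scale; lower means less binding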
Active calls of the source: *; & = joins results of further samples.

SMILES	CBX7 inh	CBX7 inh z-score
Cc1c(Cl)cccc1NC(=O)C(CC(=O)O)C(C)c1ccccc1 (stereo not given)	1.2	3.4
O=C(Cn1nc(-c2ccc(Cl)cc2)ccc1=O)NCC1CCCO1 (stereo not given)	1	0.52
Cc1cc(NC(=O)CN2CCN(c3ccccc3C)CC2)no1	1	0.051
CCN(Cc1ccccc1)S(=O)(=O)c1ccc(C(=O)Nc2nnc(C3CC3)o2)cc1	0.71	-7.8
CNC(=O)COc1ccc(NC(=O)c2ccc(-c3nn(C)c(=O)c4ccccc34)cc2)cc1	0.93	-3.2
CC1CCCCN1C(=O)c1cc2n(n1)C(C(F)(F)F)CC(c1cccs1)N2 (stereo not given)	1.2	1.8
CCc1ccccc1NS(=O)(=O)c1ccc2[nH]cc(C(=O)N(CC)Cc3ccccc3)c(=O)c2c1	0.93	-0.99
COc1ccc(-c2csc(NC(=O)CCOc3ccccc3)n2)cc1OC	0.93	-2.5
Cc1cc(-c2ccccc2)n(-c2cc(NCCO)ncn2)n1	1.1	0.14
CCOC(=O)N1CCN(c2c(NCc3ccccc3Cl)c(=O)c2=O)CC1	1	0.0054
COC(CN(C)C(=O)c1ccc2c(c1)NC(=O)c1ccccc1S2)OC	0.84	-2.1
CCc1ccc(NC(=O)CNS(=O)(=O)c2c(C)noc2C)cc1	1	1.5

5 compounds from above, sorted by their value in CBX7 inh z-score, descending:
SMILES,CBX7 inh z-score
CC1CCCCN1C(=O)c1cc2n(n1)C(C(F)(F)F)CC(c1cccs1)N2 (stereo not given),1.8
CCc1ccc(NC(=O)CNS(=O)(=O)c2c(C)noc2C)cc1,1.5
Cc1cc(-c2ccccc2)n(-c2cc(NCCO)ncn2)n1,0.14
CCOC(=O)N1CCN(c2c(NCc3ccccc3Cl)c(=O)c2=O)CC1,0.0054
CCN(Cc1ccccc1)S(=O)(=O)c1ccc(C(=O)Nc2nnc(C3CC3)o2)cc1,-7.8

The listing continues:
SMILES	CBX7 inh	CBX7 inh z-score
CCOc1ccc(N2CC(c3nc4ccccc4[nH]3)CC2=O)cc1 (stereo not given)	1	2
c1ccc(Oc2cccc(CN3CCN(Cc4ccncc4)CC3)c2)cc1	0.64	-5.6
CCC1=Nc2cc(C(=O)NCc3ccccn3)ccc2Sc2ccc(Br)cc21	0.99	-0.082
COc1cc(NC(=O)c2cc(Cl)ccc2Nc2ccccc2)cc(OC)c1	0.72	-0.98
O=C1CN(C(=O)c2ccccc2F)C(c2ccccc2)c2cc(Cl)ccc2N1 (stereo not given)	1	1
O=C(NCCCN1CCOCC1)c1cc(-c2ccc(Cl)c(Cl)c2)on1	1.1	1.4
CCCN1CCN(c2cc(C)nc3c(-c4ccc(Cl)cc4)c(C)nn23)CC1	1.1	1.2
CC(C)c1ccc(OCc2nc(-c3ccccc3Cl)no2)cc1	2.4	14
O=C(CSc1nccn1-c1ccc(F)cc1)Nc1ccc2c(c1)OCCO2	0.78	-0.29
CCOc1ccc(C(=O)N2CC(=O)Nc3ccc(C)cc3C2c2ccc(F)cc2)cc1OCC (stereo not given)	0.92	-1.2
CCn1c(SCC(=O)Nc2ccccc2C)nnc1-c1c[nH]c2ccccc12	1	0.3
CCC(C)NC(=O)c1ccc2c(c1)N(CC)C(=O)c1ccccc1S2 (stereo not given)	1	-0.11
COc1cc(C2c3c(-c4ccccc4)n[nH]c3C(=O)N2c2ccccc2)ccc1O (stereo not given)	1	0.58
COc1cccc(-n2ccnc2SCC(=O)Nc2ccc3c(c2)OCO3)c1	0.84	-0.22
COc1ccc(CCNC(=O)CCCCn2c(=O)[nH]c3ccsc3c2=O)cc1OC	1	-0.083
CCC(=O)Nc1c(-c2ccccc2)nc2ccccn12	0.97	-0.59
Cn1ccc(=O)c2c(-c3ccccc3)nc3nonc3c21	0.98&0.92	-0.42&-2.1
CC1CCCN(S(=O)(=O)c2ccc3[nH]c(=O)cc(C(=O)NC4CCCC(C)C4C)c3c2)C1 (stereo not given)	0.97	-0.46
CCOc1ccc(CNC(=O)Cn2nc(C)c3ccccc32)cc1	1	1
CCOC(=O)c1c[nH]c2ccc(OC(F)(F)F)cc2c1=O	1.1	1.3
O=C(NCCC1=CCCCC1)C1CCCN(S(=O)(=O)c2ccc(Br)s2)C1 (stereo not given)	1.1	1.3
CCc1ccc(CN2C(=O)c3ccccc3C2C(=O)NCCc2ccccc2)cc1 (stereo not given)	0.86	-0.18
Cc1ccc(-c2nc(-c3ccc(Cl)cc3)sc2CC(=O)O)c(C)c1	1.2	1
CCc1cccc(CC)c1NS(=O)(=O)c1ccc2c(c1)CCN2C(=O)C1CCC1	0.93	-2
CC1CCN(C(=O)CN(c2ccc(Cl)c(C(F)(F)F)c2)S(=O)(=O)c2ccccc2)CC1	1	0.41
COc1ccccc1OCC(=O)Nc1c(C(=O)c2ccc(Cl)cc2)oc2ccccc12	1	0.21
Cn1c(NCc2ccc3c(c2)OCO3)nc2ccccc21	0.91	-0.41
Cc1onc(-c2ccccc2Cl)c1C(=O)NC(C(=O)O)C(C)C (stereo not given)	1.1	0.12
Cc1cccc(CCNC(=O)Cn2nc(Cc3ccncc3)c3ccccc3c2=O)c1	1	1.5
CCOC(=O)c1cc(-c2ccccc2)n(CCC(=O)Nc2nc3ccc(OCC)cc3s2)c1C	0.86	-2.4
NS(=O)(=O)c1ccc(CCNC(=O)c2cc3sccc3n2Cc2ccc(F)cc2)cc1	1	0.089
CCCCOCCCNC(=O)c1c(-c2ccccc2Cl)noc1C	1	0.026
Cc1ccc(-c2nn(CCC(=O)NCc3cccnc3)c(=O)c3ccccc23)cc1	0.95	-1.4
CCOCCCNC(=O)c1ccc2c(c1)N(Cc1cccc(Cl)c1)C(=O)c1ccccc1S2=O (stereo not given)	0.8	-1.3
COc1ccc(Nc2cc(C(=O)NCCCN3CCCCCC3)c3ccccc3n2)c(OC)c1	0.79	-2.8
Cc1ccc(Cc2c(C)nc3c(C(=O)NCc4ccc(Cl)cc4)cnn3c2C)cc1	0.94	-1.5
COc1nnc(-c2ccc(N3CCCCC3)c(NC(=O)COc3ccccc3)c2)c2ccccc12	0.97	-0.85
O=c1c2nnn(Cc3ccc(F)cc3)c2ncn1Cc1ccc(Br)cc1	0.95	-0.83
Cc1ccccc1Nc1c(-c2ccc(N3CCOCC3)cc2)nc2ccccn12	0.53	-3.8
CCc1ccc(S(=O)(=O)Nc2ccc3oc4c(c3c2)CC(C)CC4)cc1 (stereo not given)	0.82	-5
CCOC(=O)c1cnc2ccc(C)cc2c1Nc1cc(Cl)ccc1OC	1.2	1.9
COc1ccc2nc(N3CCC(C(=O)NCCc4ccccc4)CC3)sc2c1	1.2	2.8
COc1ccc(C(=O)NC(C)C(c2cccs2)N2CCOCC2)c(OC)c1 (stereo not given)	1	-0.058
COc1cc2c(C(=O)NCCN3CCOCC3)cn(CC(C)C)c(=O)c2cc1OC	1	0.44
COc1cc(OC)cc(-c2cc3nc(C)c(CCC(=O)Nc4ccc(C)c(F)c4)c(C)n3n2)c1	0.98	-0.28
O=C(NC1CCCCCC1)C1(S(=O)(=O)c2ccc(Cl)cc2)CC1	1	-0.06
Cc1ccccc1-c1nnc(SCC(=O)Nc2nccs2)o1	1.4	0.94
CC(C)CCNC(=O)[C@H](CSCc1ccccc1)N1Cc2ccccc2C1=O	0.93	-1.6
CCN(C(=O)Cn1c(SCc2cccc(C)c2)nc2ccncc21)c1cccc(C)c1	1	-0.022
Fc1ccccc1-c1nc(Nc2c(F)cccc2F)c2ccccc2n1	0.58	-0.56
O=C(NCCc1ccccc1Cl)c1cc(-c2ccccc2)nc2ccccc12	1	0.023
O=C(Cn1c(C(=O)c2ccccc2)nc2ccccc21)c1ccccc1	1.1	1.5
COc1cc(NC(=O)c2cc(-c3ccccc3OC)on2)c(OC)cc1Cl	1.3	2.1
COc1cc2c(cc1OC)C1C(C(=O)NC3CCCc4ccccc43)c3ccccc3C(=O)N1CC2 (stereo not given)	0.98	-0.56
CC(C)(C)c1ccc2c(c1)N(CC(=O)NC1CCCC1)C(=O)CO2	1.2	1.7
Cc1ccc(-n2ncc(C(=O)Nc3ccc(C)c(Cl)c3)c2C2CCNCC2)cc1C	0.87	-2.4
C=CCN1C(=O)c2ccccc2Sc2ccc(C(=O)NCCCOCC)cc21	1	0.52
CCCCCn1c(C(C)NC(=O)c2ccccc2OC)nc2ccccc21 (stereo not given)	1	0.39
CCOC(=O)c1cnc2cc(C(F)(F)F)ccc2c1N1CCN(c2ccc(F)cc2)CC1	0.88	-2.1
COc1ccc(OC)c(CNC(=O)c2cc3c(-c4ccc(OC)c(OC)c4)nn(C)c3s2)c1	0.86	-0.59
(next part)
SMILES	CBX7 inh	CBX7 inh z-score
CCc1ccccc1NC(=O)C(Cc1ccccc1)NS(=O)(=O)c1ccc2c(c1)CCN2C(C)=O (stereo not given)	0.97	-1.1
O=C(Nc1ccc2snnc2c1)Nc1ccccc1F	1.1	2.6
CCN(C(=O)C1CCCN(S(=O)(=O)c2c(C)noc2C)C1)c1ccccc1 (stereo not given)	1	0.27
CC(CCc1ccccc1)NC(=O)CCn1c(=O)[nH]c2ccsc2c1=O (stereo not given)	1.1	0.44
O=C(NC1CCCCC1)C1C2C=CC3(CN(Cc4ccccc4)C(=O)C13)O2 (stereo not given)	1.2	2.5
COc1ccc(CCNC(=O)C2c3ccccc3C(=O)N2Cc2ccc(F)cc2Cl)cc1OC (stereo not given)	0.97	-0.3
Cc1ccc(-n2cc(C(=O)Nc3c(F)cc(F)cc3Br)c3ccccc3c2=O)cc1C	0.93	-0.93
COc1cc2c(C(=O)Nc3ccc(Oc4ccccc4)cc3)cn(CC(C)C)c(=O)c2cc1OC	0.93	-1.9
Cc1ccc(OCc2nc(C#N)c(NCCCN(C)C)o2)cc1	1	0.24
CCCn1c(NCc2cc(Br)ccc2NS(=O)(=O)c2ccc(C)cc2)nc2ccccc21	0.89	-0.25
Cc1ccnc(NC2c3ccccc3C(=O)N2Cc2ccccc2)c1 (stereo not given)	0.81	-1.9
CCN1C(=O)c2ccccc2Sc2ccc(C(=O)NCCc3ccc(C)cc3)cc21	0.72	-5.1
Cc1ccc(S(=O)(=O)c2nc(-c3ccccc3Br)oc2N(C)C)cc1	1	0.087
COC(=O)Cn1ncn2c(cc3oc(C)cc32)c1=O	1.1	1.8
CCC(C(=O)NCc1ccccn1)n1ncc2ccccc21 (stereo not given)	0.9	-2.4
CCOc1ccc2nc(N3CCCC(C(=O)O)C3)sc2c1 (stereo not given)	1	0.24
CCOc1ccc(-n2c(C)nc3cc(C(=O)NCc4ccc(F)cc4)ccc32)cc1	0.95	-1.3
CCCNC(=O)CN1C(=O)COc2ccc(S(=O)(=O)N3CCCC3)cc21	0.99	-0.44
CCc1ccc(NC(=O)CSc2nc3ccc(OC)cc3[nH]2)cc1	0.98	-0.21
O=C(Nc1ccc2c(c1)nc1n2CCN(Cc2ccccc2)C1)c1cccs1	0.96	-1.7
CCOC(=O)c1cnc2ccc(OCC)cc2c1NCc1ccccc1OC	0.7	-0.34
O=C(CSc1ccc2nnc(-c3ccccc3)n2n1)Nc1ccc(F)cc1	1	0.34
Cc1ccc(C2CC(O)C(C)C(c3ccc(C)cc3)N2)cc1 (stereo not given)	0.97	-0.63
CC(C)NC(=O)CCCn1nc(-c2ccccc2)c2ccccc21	1.1	1.2

Random excerpt: 3 entries already listed.
SMILES	CBX7 inh	CBX7 inh z-score
CCOc1ccc2nc(N3CCCC(C(=O)O)C3)sc2c1 (stereo not given)	1	0.24
Cc1ccc(S(=O)(=O)c2nc(-c3ccccc3Br)oc2N(C)C)cc1	1	0.087
COC(=O)Cn1ncn2c(cc3oc(C)cc32)c1=O	1.1	1.8

New compounds follow:
SMILES	CBX7 inh	CBX7 inh z-score
COc1ccc(NC(=O)C2CCN(S(=O)(=O)c3cnc[nH]3)CC2)c(OC)c1	0.84	-2
Cc1c(Cl)cccc1Nc1nc(-c2ccccn2)cs1	0.47*	-6.8*
O=C(Nc1cc(Cl)ccc1Cl)c1cccnc1Oc1ccc(Cl)cc1	0.94	-0.89
Cc1cccc(NC(=O)Nc2ccc(C)c(C)c2)n1	1.1	0.99
CCOC(=O)c1cnc2ccc(OCC)cc2c1Nc1cccc(C)c1C	0.91	-1.1
Cc1cc(C)cc(N2CC(c3nc4ccccc4n3C(C)C)CC2=O)c1 (stereo not given)	1	-0.018
O=S(=O)(c1ccc(Cl)cc1)c1nc(-c2ccccc2F)oc1N1CCCCC1	0.6	-3.9
COC(=O)c1cnc(N2CCN(c3ccccn3)CC2)c2ccccc12	1.2	4.8
O=C(NCCCSC1CCCCC1)c1csc2c1CCCCC2	1.1	1.9
COc1ccc(CNC(=O)c2ccc3c(c2)N(Cc2ccc(F)cc2)CCS3)cc1	0.84	-4.2
Cc1ccc(CNS(=O)(=O)c2ccc3c(c2)n(C)c(=O)c(=O)n3C)cc1	1.2	1.2
Cc1cccc(Nc2nc3ccccc3nc2NS(=O)(=O)c2ccc(Cl)cc2)c1C	0.97	-0.77

Single records, from the list above. Order of screens: CBX7 inh, CBX7 inh z-score
O=C(NCCCSC1CCCCC1)c1csc2c1CCCCC2 as listed: 1.1, 1.9
Cc1cc(C)cc(N2CC(c3nc4ccccc4n3C(C)C)CC2=O)c1 (stereo not given) as listed: 1, -0.018
Cc1cccc(Nc2nc3ccccc3nc2NS(=O)(=O)c2ccc(Cl)cc2)c1C as listed: 0.97, -0.77
Cc1ccc(CNS(=O)(=O)c2ccc3c(c2)n(C)c(=O)c(=O)n3C)cc1 as listed: 1.2, 1.2

Next section:
SMILES	CBX7 inh	CBX7 inh z-score
CCCCC(C(N)=O)N1C(=O)C2C3C=CC(C3)C2C1=O (stereo not given)	1	0.73
Cc1ccc(-c2nnc(SCC(=O)Nc3nc(-c4ccccc4)cs3)o2)cc1	1	0.11
CCOC(=O)c1cc(-c2ccccc2)n(CCC(=O)NC2CCC(C)CC2)c1C (stereo not given)	0.81	-2.1
COC(=O)C(CCCN1C(=O)c2ccccc2C1=O)(NC(C)=O)c1nn[nH]n1 (stereo not given)	1	0.33
O=C(CSc1nnc(-c2cccnc2)o1)Nc1ccc(Cl)c(Cl)c1	0.47*	-0.63*

Screens from PubChem.

Not all compounds are listed; the hit share may differ from the screen's.
